# Assay outcomes as filed in PubChem.
# NPYLR7 ag: agonists of mosquito NPYLR7 receptor, primary screen, cell-based, Aedes aegypti, calcium fluorescence, mosquito biting behavior; HEK293T NPYLR7/Galpha15, GCaMP6s calcium fluorescence; activation, % at 10 µM; hit rate 0.15% among 270,000; AID 1259423, 2018; in the data active = activation above about 40%;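 note: 0% = vehicle and 100% = reference agonist at the receptor; some compounds past the cut are filed as inactive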
# NPYLR7 ag max-min: second read-out of NPYLR7 ag, no call of its own (marks repeat the call); activation, %; measured here: Max-Min RFU normalised activation; some inactives read as strong as hits;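 span of the calcium signal over five minutes; 0% = vehicle and 100% = native peptide agonist; compound fluorescence can raise it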
# Starred values were filed as active, the others as inactive. Not all compounds are listed, so the mix of outcomes need not match the whole.
1) c1coc(CCn2ccnc2-c2cnc(N3CCCC3)s2)c1
2) O=C(Cn1ncc(=O)c2ccccc21)Nc1ccccc1
3) O=C(c1ccccc1)N1CCCC(N2CCN(c3ccc(F)cc3)CC2)C1 (stereo not given)
4) Cc1ccc(Cl)c(NC(=O)N2CCN(c3ncccc3C(=O)NCc3cccs3)CC2)c1
5) CCSCCC(C)N(C)c1ncnc2[nH]ncc12 (stereo not given)
6) O=C(CSc1nc2ccc(Cl)cc2c(=O)n1-c1ccc(F)cc1F)N1CCCC1
7) COc1cccc(-n2cc(CN(C)Cc3cccc4nonc34)cn2)c1
8) CCNc1ccnc(N2CCN(C/C=C/c3ccccc3)CC2)n1
screen / no.,1,2,3,4,5,6,7,8
NPYLR7 ag,11.5,2.7,0.0,-2.1,2.7,-1.1,3.1,-3.7
NPYLR7 ag max-min,6.0,2.1,1.0,-12.1,2.0,-5.2,0.9,-7.2

# The list goes on; the last 4 above are carried over.
5) CCSCCC(C)N(C)c1ncnc2[nH]ncc12 (stereo not given)
6) O=C(CSc1nc2ccc(Cl)cc2c(=O)n1-c1ccc(F)cc1F)N1CCCC1
7) COc1cccc(-n2cc(CN(C)Cc3cccc4nonc34)cn2)c1
8) CCNc1ccnc(N2CCN(C/C=C/c3ccccc3)CC2)n1
9) CCCCc1ncc(-c2c(-c3ccccc3)ncn2CCC2CCCN2C)[nH]1 (stereo not given)
10) COc1ccc(C)cc1NC(=O)CSc1ccc(-c2sc(C)nc2C)nn1
11) C=CCN1C(=O)C(=NN=Cc2c[nH]c3ccccc23)c2ccccc21
12) Cc1ccc(C(=O)N2CCC(C(Cc3ccc(F)cc3F)N(C)C(=O)c3cccnc3)CC2)cc1C (stereo not given)
13) COc1ccc(C2CCN(Cc3ccc(Sc4nncn4C)o3)c3ccccc3S2)cc1C (stereo not given)
14) CC(C)CN(CC(=O)N(CCc1c[nH]c2ccccc12)Cc1ccc(C(F)(F)F)cc1)C(=O)/C=C/c1ccccc1
15) COc1coc(C(=O)N2CCN(c3cc(C)ccc3C)CC2)cc1=O
16) O=C1C(C(c2ccccc2)N2CCN(CCO)CC2)Sc2ncnn21 (stereo not given)
17) COc1ccc(/C=C2\SC(=S)N(CCCCCC(=O)N3CCN(C)CC3)C2=O)cc1
18) Cc1cc(C)c(Cn2ccnc2CN(C(=O)C2CCCC2)C2CCCCC2)c(C)c1
19) CCOC(=O)c1nn(-c2ccccc2Cl)c(=O)cc1OCC(=O)NCc1ccccc1OC
screen / no.,5,6,7,8,9,10,11,12,13,14,15,16,17,18,19
NPYLR7 ag,2.7,-1.1,3.1,-3.7,-0.2,-18.2,-0.6,11.7,8.5,30.1,9.4,5.8,11.2,13.1,9.2
NPYLR7 ag max-min,2.0,-5.2,0.9,-7.2,0.3,-21.9,7.2,4.6,2.0,25.0,5.9,5.1,11.0,14.4,3.5

# An excerpt of these results, with each value named.
8. CCNc1ccnc(N2CCN(C/C=C/c3ccccc3)CC2)n1
  NPYLR7 ag = -3.7 | NPYLR7 ag max-min = -7.2
11. C=CCN1C(=O)C(=NN=Cc2c[nH]c3ccccc23)c2ccccc21
  NPYLR7 ag = -0.6 | NPYLR7 ag max-min = 7.2
